UCH37 DUB inh: human UCH37 deubiquitinating enzyme inhibition; inhibition, % (test concentration not listed); Q9Y5K5; AID 588478; purified proteasome/UCH37, Ub-AMC cleavage fluorescence; 330,000 compounds, 0.33% hits;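 active means mean of two replicates above 20%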;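 further: 0% = compound-free wells with enzyme and 100% = wells lacking proteasome; stock transfer was 100 nL into about 20 µL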
Target sequence (Q9Y5K5 whole entry, looked up): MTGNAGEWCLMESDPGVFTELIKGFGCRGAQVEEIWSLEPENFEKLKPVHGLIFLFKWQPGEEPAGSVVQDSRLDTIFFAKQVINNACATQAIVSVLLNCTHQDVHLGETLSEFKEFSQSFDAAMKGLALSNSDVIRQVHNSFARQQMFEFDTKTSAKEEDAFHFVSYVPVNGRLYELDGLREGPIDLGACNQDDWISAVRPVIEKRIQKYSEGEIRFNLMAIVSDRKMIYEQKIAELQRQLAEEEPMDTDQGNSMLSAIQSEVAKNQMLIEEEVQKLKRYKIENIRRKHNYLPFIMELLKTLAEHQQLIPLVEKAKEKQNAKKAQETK
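system = Proteasome-associated human UCH37 deubiquitinase | amount = 0.15 nM proteasome as dispensed | medium = pH 7.4 Tris-HCl (50 mM) with ovalbumin, ATP-MgCl2, DTT | incubation = 30 min preincubation with enzyme, 25 min cleavage at room temperature | detection = AMC fluorescence 355/460 nm | read-out basis = percent inhibition | controls = no-proteasome and no-compound wells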
AF4-AF9 inh: MLL-AF4/AF9 protein interaction inhibition; AID 651704; 350,000 compounds, 0.47% hits; inhibition, % at 10 µM; AlphaScreen, biotin-AF4 peptide binding to FLAG-AF9; P42568;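 active means every replicate reaching a set inhibition limit, whatever the replicate mean, cut at about 25% in these data; inconclusive means mean inhibition reaches that limit but some replicates miss it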;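 further: 0% = plate neutral control median and 100% = total signal loss; the record names both 10 and 1 µM as test concentration; the first replicate is given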
Target sequence (P42568 whole entry, looked up): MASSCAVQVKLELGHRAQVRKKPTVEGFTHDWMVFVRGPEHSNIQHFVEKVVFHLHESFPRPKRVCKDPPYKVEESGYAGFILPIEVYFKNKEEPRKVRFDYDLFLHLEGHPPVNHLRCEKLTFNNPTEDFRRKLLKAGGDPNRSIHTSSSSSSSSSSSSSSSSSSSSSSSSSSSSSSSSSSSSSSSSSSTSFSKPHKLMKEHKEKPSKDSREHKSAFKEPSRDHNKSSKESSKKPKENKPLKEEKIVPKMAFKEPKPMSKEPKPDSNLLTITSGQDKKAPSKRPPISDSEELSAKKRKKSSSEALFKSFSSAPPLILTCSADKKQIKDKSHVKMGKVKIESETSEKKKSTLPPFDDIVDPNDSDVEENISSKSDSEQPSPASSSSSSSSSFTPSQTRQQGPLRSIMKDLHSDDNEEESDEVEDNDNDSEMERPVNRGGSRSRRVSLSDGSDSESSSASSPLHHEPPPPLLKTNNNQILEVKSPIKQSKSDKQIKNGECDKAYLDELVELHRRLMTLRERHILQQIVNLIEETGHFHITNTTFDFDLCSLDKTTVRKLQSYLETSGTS
RanGTP-Impb inh: inhibitors of RanGTP-importin-beta interaction, primary screen, biochemical, FRET, CFP-Ran, YFP-importin-beta, homogeneous; 300,000 compounds, 1.1% hits; AID 2216; inhibition, % (concentration not given with the values); cell-free CFP-Ran/YFP-importin-beta FRET ratio;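 active means most replicates above 15%; inconclusive means exactly half above 15%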;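 further: 0% = DMSO wells and 100% = Ran loaded with GDP instead of GTP; wells of about 40 µL received 100 nL stock; the first replicate is given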
Vif TR-FRET: HIV-1 Vif–A3G interaction blockers – biochemical, TR-FRET, GST-Vif 1-94, biotin-A3G peptide, dose response retest, primary screen (AID 1117319) | TR-FRET GST-Vif / biotin-A3G peptide binding; higher % means a stronger effect; test concentration not given here; strong numbers were not always called active | inhibition, %, or IC50 in µM where a hit was titrated | 260,000 compounds, 0.57% hits;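 active means above the screen mean plus three standard deviations and confirmed in dose response; inconclusive means results disagree or hit not tested in dose response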;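 further: Vif residues 1-94 fused to GST binding biotinylated APOBEC3G peptide 110-148; 0% = full assay without inhibitor and 100% = GST in place of GST-Vif; retest series ran down from 100 µM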
FGF22 binding: shifts melting point of recombinant human FGF22; Q9HCT0; recombinant FGF22 thermal shift, SYPRO orange fluorescence; percent of sucrose octasulfate shift, DMSO zero; calls only at 9.99 µM; 340,000 compounds, 1.5% hits;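 active means melting point raised past a set limit in the mean and every replicate; inconclusive means no clear call; three in four hits are not shown here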
Target sequence (Q9HCT0 whole entry, looked up): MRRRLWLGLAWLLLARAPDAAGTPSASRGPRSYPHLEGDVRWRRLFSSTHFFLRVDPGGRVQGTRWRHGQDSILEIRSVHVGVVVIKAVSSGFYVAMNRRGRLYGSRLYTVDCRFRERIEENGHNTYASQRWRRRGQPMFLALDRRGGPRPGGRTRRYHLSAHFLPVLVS
HNF4A DNA FP: change in binding of human HNF4 alpha to DNA; HNF4a-FITC DNA binding, fluorescence polarization, 1 h; activity change, % at 10 µM; P41235; 360,000 compounds, 0.3% hits; in the data active means activity change above about 30%, passing the limit was not always enough;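 further: controls were the assay level and a saturating level of protein; the project sought stronger binding though the title names inhibitors; some compounds called inactive have numbers as strong as hits; positive values seem to mean higher polarization but the record does not say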
Ecoli growth: inhibitors of Escherichia coli growth. AID 1053175. 330,000 compounds, 0.21% hits. OD600 absorbance (test concentration not listed). OD600, 23 h; hits give low values;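 active means OD600 absorbance below the run mean of sample wells minus 3.6 SD, in any replicate, cut at about 0.56 in these data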;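 further: stock transfer was 300 nL into about 60 µL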
* hit, by the source's call.

COc1cc(C)c(CN2CCSCC2)cc1C was read as UCH37 DUB inh 3.3, AF4-AF9 inh -0.7, RanGTP-Impb inh 1.8, FGF22 binding inactive, HNF4A DNA FP 0.6 and Ecoli growth 0.69.
`Cn1cnnc1SCC(=O)Nc1sccc1C#N` gave UCH37 DUB inh 1.7, AF4-AF9 inh -8.2, RanGTP-Impb inh -1.4, Vif TR-FRET inconclusive, FGF22 binding inactive, HNF4A DNA FP -2.8 and Ecoli growth 0.68.
Screening Cc1cc(C(=O)Nc2nc3c(s2)CCCC3)no1 returned UCH37 DUB inh 5.4, RanGTP-Impb inh -0.6, Vif TR-FRET -3%, HNF4A DNA FP -1.1 and Ecoli growth 0.65.
Cc1ccc(-c2cc(C(=O)Nc3cccnc3)[nH]n2)c(O)c1C was read as UCH37 DUB inh 1.7, AF4-AF9 inh 0.1, RanGTP-Impb inh -2.9, Vif TR-FRET -3%, FGF22 binding inactive, HNF4A DNA FP 1.4 and Ecoli growth 0.65.
For COCCCNC(=O)CN(c1cc(Cl)cc(Cl)c1)S(C)(=O)=O the results were UCH37 DUB inh 0.5, AF4-AF9 inh -80, RanGTP-Impb inh 3.0, Vif TR-FRET -4%, FGF22 binding inactive, HNF4A DNA FP -0.8 and Ecoli growth 0.71.
COC(=O)c1cn(Cc2ccccc2C)nn1 was read as UCH37 DUB inh 3.7, AF4-AF9 inh -4.7, RanGTP-Impb inh 0.9, Vif TR-FRET -2%, FGF22 binding inactive, HNF4A DNA FP 1.0 and Ecoli growth 0.7.
`CCn1c(/C(C#N)=N/O)nc2ccccc21` gave RanGTP-Impb inh -1.5, Vif TR-FRET -3% and HNF4A DNA FP 1.3.
`COc1ccc(OC)c(NC(=O)COC(=O)CCS(=O)(=O)c2ccc(Cl)cc2)c1` gave UCH37 DUB inh 0.8, AF4-AF9 inh -1.2, FGF22 binding inactive, HNF4A DNA FP 3.0 and Ecoli growth 0.66.
`Cc1ccccc1CN1CCN(C(C)C(=O)NNC(=O)c2ccc(F)cc2)CC1` (stereo not drawn) gave UCH37 DUB inh 5.9, AF4-AF9 inh 2.1, Vif TR-FRET -1%, FGF22 binding inactive, HNF4A DNA FP -1.1 and Ecoli growth 0.62.
`CC(C)(C)CC(=O)Nc1ccc(-c2nnc3n2CCCCC3)cc1` gave UCH37 DUB inh 2.7, AF4-AF9 inh 0.2, RanGTP-Impb inh inconclusive, Vif TR-FRET -23%, FGF22 binding inactive, HNF4A DNA FP 1.7 and Ecoli growth 0.66.
For Cc1ccc2[nH]c(O)c(N=NC(=O)C3CC3c3ccccc3)c2c1Br (stereo not drawn) the results were UCH37 DUB inh 1.8, RanGTP-Impb inh 9.1 and HNF4A DNA FP -2.8.
COc1ccc(C2=NO[C@@H]3C(=O)N(c4c(C)cccc4C)C(=O)[C@H]23)cc1OC was read as UCH37 DUB inh 6.9, RanGTP-Impb inh -3.9, Vif TR-FRET 4%, HNF4A DNA FP 0.1 and Ecoli growth 0.67.
Screening CC(SCC(=O)NC(C)C1CC2CCC1C2)C(=O)O (stereo not drawn) returned UCH37 DUB inh 5.0, RanGTP-Impb inh 4.0, Vif TR-FRET -2%, HNF4A DNA FP -3.1 and Ecoli growth 0.67.
For Cc1c(C(=O)Nc2c(F)cc(F)cc2Br)sc2ncn(CC(=O)N3CCCC3)c(=O)c12 the results were UCH37 DUB inh -0.6, AF4-AF9 inh 0.0, RanGTP-Impb inh 0.6, Vif TR-FRET 1%, FGF22 binding inactive, HNF4A DNA FP 6.9 and Ecoli growth 0.6.
CC(=O)Nc1ccc(NS(=O)(=O)c2ccc(C)cc2)cc1[N+](=O)[O-] was read as UCH37 DUB inh 3.5, AF4-AF9 inh 0.1, RanGTP-Impb inh 2.6, Vif TR-FRET 13%, FGF22 binding inactive, HNF4A DNA FP 1.1 and Ecoli growth 0.71.
`Cc1csc(N2CCCC2=O)n1` gave UCH37 DUB inh 3.0, AF4-AF9 inh 0.6, RanGTP-Impb inh inconclusive, Vif TR-FRET -1%, FGF22 binding inactive, HNF4A DNA FP 3.7 and Ecoli growth 0.7.
Cc1cc(C)c(C)c(S(=O)(=O)Nc2ccc3cn[nH]c3c2)c1C was read as UCH37 DUB inh 2.5, AF4-AF9 inh -0.3, Vif TR-FRET 7%, FGF22 binding inactive, HNF4A DNA FP 1.8 and Ecoli growth 0.66.
Screening O=C(CN(Cc1ccco1)C(=O)CNS(=O)(=O)c1ccc(F)cc1)NCc1ccco1 returned UCH37 DUB inh -0.7, AF4-AF9 inh 1.3, RanGTP-Impb inh 4.1, Vif TR-FRET inconclusive, FGF22 binding inactive, HNF4A DNA FP 1.1 and Ecoli growth 0.68.
Screening C/C(=N\N=C(/N)SC1CC(=O)N(c2cccc(Cl)c2)C1=O)c1cccs1 (stereo not drawn) returned AF4-AF9 inh -2.6, RanGTP-Impb inh 2.4, Vif TR-FRET 9%, FGF22 binding inactive and HNF4A DNA FP 2.9.
`CC1=C([N+](=O)[O-])C(c2ccc3c(c2)OCO3)N(C)C(=O)N1C` (stereo not drawn) gave AF4-AF9 inh 3.2, RanGTP-Impb inh 2.9, Vif TR-FRET 24%, FGF22 binding inactive and HNF4A DNA FP -2.5.

The list goes on, overlapping the part above by two compounds.
Screening C/C(=N\N=C(/N)SC1CC(=O)N(c2cccc(Cl)c2)C1=O)c1cccs1 (stereo not drawn) returned AF4-AF9 inh -2.6, RanGTP-Impb inh 2.4, Vif TR-FRET 9%, FGF22 binding inactive and HNF4A DNA FP 2.9.
`CC1=C([N+](=O)[O-])C(c2ccc3c(c2)OCO3)N(C)C(=O)N1C` (stereo not drawn) gave AF4-AF9 inh 3.2, RanGTP-Impb inh 2.9, Vif TR-FRET 24%, FGF22 binding inactive and HNF4A DNA FP -2.5.
O=C(Nc1ccc(Cl)cc1F)c1cccc2ccccc12 was read as UCH37 DUB inh 1.7, AF4-AF9 inh -3.1, RanGTP-Impb inh 0.2, Vif TR-FRET -16%, FGF22 binding inactive, HNF4A DNA FP -1.1 and Ecoli growth 0.7.
Screening FC(F)(F)c1ccccc1Nc1nccs1 returned UCH37 DUB inh 5.3, RanGTP-Impb inh 1.9, Vif TR-FRET 20%, HNF4A DNA FP 0.4 and Ecoli growth 0.74.
`O=C(CCNC(=O)c1ccc(Cl)cc1)Nc1cc(C(F)(F)F)ccc1N1CCOCC1` gave AF4-AF9 inh 4.7, Vif TR-FRET 0% and HNF4A DNA FP -0.2.
Screening COc1cc(/C=C/C(=O)OCC(=O)N(C)CC(=O)Nc2ccc(F)cc2)ccc1OC(F)F returned UCH37 DUB inh -2.8, AF4-AF9 inh -0.6, Vif TR-FRET -2%, FGF22 binding inactive, HNF4A DNA FP -4.4 and Ecoli growth 0.64.
Screening CCOC(=O)c1c(C)[nH]c(C)c1C(=O)COC(=O)CCOc1ccccc1OC returned UCH37 DUB inh 4.1, RanGTP-Impb inh 0.2, Vif TR-FRET 9%, HNF4A DNA FP 2.9 and Ecoli growth 0.71.
For Cc1ccc(Nc2n[nH]c(=S)s2)cc1C the results were AF4-AF9 inh -1.5, Vif TR-FRET -3%, FGF22 binding inactive and HNF4A DNA FP -0.1.
`Cc1ccc(N2C(=O)C3C4C=CC(CC4)C3C2=O)cc1Br` (stereo not drawn) gave UCH37 DUB inh 1.8, AF4-AF9 inh 1.4, RanGTP-Impb inh 4.8, FGF22 binding inactive, HNF4A DNA FP 1.2 and Ecoli growth 0.75.
Screening Cc1cccc(C)c1Nc1nnc(SCC(=O)c2ccc3c(c2)NC(=O)CO3)s1 returned UCH37 DUB inh 3.3, RanGTP-Impb inh 2.4, HNF4A DNA FP 4.5 and Ecoli growth 0.7.
For Cc1cc(C)cc(N(C(=O)c2ccccn2)C(C(=O)NC2CCCCC2)c2cccs2)c1 (stereo not drawn) the results were UCH37 DUB inh 1.8, RanGTP-Impb inh 6.7, Vif TR-FRET 3%, HNF4A DNA FP 3.1 and Ecoli growth 0.72.
Screening Cc1cc(N/N=C/c2ccccc2)nc(N2CCOCC2)n1 returned AF4-AF9 inh 2.2, RanGTP-Impb inh 5.9, Vif TR-FRET 26%, FGF22 binding inactive and HNF4A DNA FP 0.1.
Cc1cc(Nc2ccccc2O)c2ccccc2n1 was read as UCH37 DUB inh 4.9, AF4-AF9 inh -0.2, RanGTP-Impb inh 2.2, Vif TR-FRET -1%, FGF22 binding inactive, HNF4A DNA FP 3.0 and Ecoli growth 0.67.
COCc1cc(N2CCOCC2)nc(-c2ccccc2)n1 was read as UCH37 DUB inh 3.6, AF4-AF9 inh 3.2, RanGTP-Impb inh 3.7, Vif TR-FRET 7%, FGF22 binding inactive, HNF4A DNA FP 1.1 and Ecoli growth 0.71.
Screening CCCCC(NC(=O)CCc1c(C)c2cc3c4c(oc3c(C)c2oc1=O)CCCC4)C(=O)O (stereo not drawn) returned UCH37 DUB inh -62, AF4-AF9 inh -1.8, RanGTP-Impb inh 1.9, Vif TR-FRET 6%, FGF22 binding inactive, HNF4A DNA FP -1.9 and Ecoli growth 0.67.
COc1ccccc1N(C1=NCCCS1)S(=O)(=O)c1ccc(C(C)(C)C)cc1 was read as UCH37 DUB inh -1.2, AF4-AF9 inh 1.8, RanGTP-Impb inh 0.6, Vif TR-FRET 1%, FGF22 binding inactive, HNF4A DNA FP 1.0 and Ecoli growth 0.76.
`COc1cccc(CN2CCC(C(=O)N3CCN(Cc4ccc5c(c4)OCO5)CC3)CC2)c1` gave UCH37 DUB inh 2.9, AF4-AF9 inh 1.2, RanGTP-Impb inh -0.2, FGF22 binding inactive, HNF4A DNA FP -2.1 and Ecoli growth 0.67.
For CCc1nnc(NS(=O)(=O)c2ccc(NC(=O)OC)cc2)s1 the results were UCH37 DUB inh 6.6, RanGTP-Impb inh 5.4, Vif TR-FRET 3%, HNF4A DNA FP -0.5 and Ecoli growth 0.68.
For O=C(O)CCC(=O)N1CCC(C(=O)c2cccc(Cl)c2)CC1 the results were UCH37 DUB inh -0.6, AF4-AF9 inh 4.1, RanGTP-Impb inh 1.8, Vif TR-FRET -1%, FGF22 binding inactive, HNF4A DNA FP 0.1 and Ecoli growth 0.72.
For CCOc1cc(N2CCOCC2)c(OCC)cc1NC(=O)c1ccc(S(=O)(=O)N2CC(C)OC(C)C2)cc1 (stereo not drawn) the results were UCH37 DUB inh 0.9, AF4-AF9 inh 4.5, FGF22 binding inactive, HNF4A DNA FP -0.4 and Ecoli growth 0.69.
Screening CCc1ccc(CN(C)C(=O)c2ccc3c(c2)OCCO3)cc1 returned UCH37 DUB inh 2.9, AF4-AF9 inh -4.2, RanGTP-Impb inh -3.1, Vif TR-FRET -7%, FGF22 binding inactive, HNF4A DNA FP 0.0 and Ecoli growth 0.66.
Screening O=S(=O)(NCCNS(=O)(=O)c1ccccc1)c1ccccc1 returned UCH37 DUB inh 4.8, RanGTP-Impb inh 1.2, Vif TR-FRET 1%, HNF4A DNA FP -3.5 and Ecoli growth 0.69.
For CC1CN(Cc2cc(=O)[nH]c(C(C)C)n2)CC(C)O1 (stereo not drawn) the results were UCH37 DUB inh 2.3, RanGTP-Impb inh -4.8, Vif TR-FRET -8%, HNF4A DNA FP -5.2 and Ecoli growth 0.67.
CC(C)(C)N1C(=O)c2ccccc2NC(=O)N1Cc1ccc(Br)cc1 was read as UCH37 DUB inh 3.3, RanGTP-Impb inh 1.5, Vif TR-FRET -8%, HNF4A DNA FP 3.5 and Ecoli growth 0.68.
Screening O=C(CSc1nnc2ccccn12)Nc1ccccc1Cl returned UCH37 DUB inh -2.7, AF4-AF9 inh -1.4, Vif TR-FRET 0%, FGF22 binding inactive, HNF4A DNA FP 0.6 and Ecoli growth 0.65.

Screening results deposited in PubChem by several laboratories.

Not all compounds are listed, so the mix of outcomes need not match the whole.
